miR-21 reporter – miR-21 reporter, rising signal. Potency, µM (highest dose often 38.3 µM), inactives show top-dose reporter change, positive = more light. 340,000 tested, under 10 active. HeLa miR-21 FLuc reporter, luciferase, 48 h; active = well fitted rising curve with a large enough effect; inconclusive = small, poorly fitted or top-dose-only effect; inactive = no such curve, though single readings can be large or run the other way;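 further: % of control where 0% means no effect; miR-21 action dims this reporter so a rising signal means less miR-21 action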
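HeLa miR-21-FLuc reporter line, endogenous miR-21; 2000 cells/well in DMEM/10% FBS; compound titration up to ~40uM final, 48 h, 37 degree Celsius; luciferase detection reagent, 15 min lysis, CCD luminescence.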
Rango-impB inh – prevents formation of the Rango-importin beta complex; Rango CFP/YFP FRET sensor + importin beta, 45 min; Potency, µM (highest dose often 92.2 µM), for the others: at the top dose inhibition of complex formation; hit rate 0.031% among 340,000; AID 540263; active = rising FRET ratio curve, often small or poorly fitted; inconclusive = mostly compound fluorescence or quenching in the first reads; inactive = flat curves in all reads;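 further: potency means the concentration at half of the fitted maximal effect; 0% = DMSO wells and 100% = buffer wells lacking importin beta; nearly all actives have a fitted effect of over 15% in size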
Target sequence (Q14974 whole entry, looked up): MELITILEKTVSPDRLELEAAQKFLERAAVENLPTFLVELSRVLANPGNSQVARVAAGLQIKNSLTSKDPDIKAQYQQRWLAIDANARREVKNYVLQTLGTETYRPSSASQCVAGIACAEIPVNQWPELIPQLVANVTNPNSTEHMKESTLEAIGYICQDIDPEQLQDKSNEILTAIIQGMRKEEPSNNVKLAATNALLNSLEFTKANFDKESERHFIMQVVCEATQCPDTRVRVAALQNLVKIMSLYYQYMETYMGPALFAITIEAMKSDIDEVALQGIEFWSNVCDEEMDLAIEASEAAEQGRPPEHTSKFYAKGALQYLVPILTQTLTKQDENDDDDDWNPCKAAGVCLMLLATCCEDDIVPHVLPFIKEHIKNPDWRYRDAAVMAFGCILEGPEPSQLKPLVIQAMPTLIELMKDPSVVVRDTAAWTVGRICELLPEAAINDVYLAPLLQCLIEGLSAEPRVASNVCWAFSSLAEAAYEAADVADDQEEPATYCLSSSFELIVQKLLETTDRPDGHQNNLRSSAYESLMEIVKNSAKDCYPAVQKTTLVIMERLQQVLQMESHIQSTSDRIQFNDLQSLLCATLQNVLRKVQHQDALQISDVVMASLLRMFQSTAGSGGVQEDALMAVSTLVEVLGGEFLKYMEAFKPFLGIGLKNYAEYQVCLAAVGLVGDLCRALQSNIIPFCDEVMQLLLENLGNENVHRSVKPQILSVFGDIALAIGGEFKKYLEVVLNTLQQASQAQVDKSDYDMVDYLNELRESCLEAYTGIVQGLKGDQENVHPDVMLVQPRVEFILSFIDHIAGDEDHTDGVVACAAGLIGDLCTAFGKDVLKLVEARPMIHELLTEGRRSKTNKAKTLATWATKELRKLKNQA
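FRET biosensor Rango (snurportin 1 IBB between N-terminal EYFP and C-terminal Cerulean), 50 nM in PBS/1 mM DTT/0.02% Tween-20/0.1% BSA, preincubated 5 min RT with compound; 0.125 microM importin beta added, 45 min RT, CFP/YFP FRET ratio read.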
Rango dissoc inh – prevents RanGTP from dissociating the Rango-importin beta complex. hit rate 0.071% among 340,000. Potency, µM (titrated, usually from 46.1 µM), for the others: at the highest dose activity change, negative = inhibition. Biochemical FRET Rango-importin beta, RanGTP-induced dissociation. O95149+P62826. AID 540253; active means falling FRET ratio curve, often poorly fitted, with flat reads before Ran was added; inconclusive means other falling curves, or compound fluorescence or quenching; inactive means flat or rising ratio curve;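 further: potency means the concentration at half of the fitted maximal effect; % of control where 0% means no effect; nearly all actives have a fitted effect of over 45% in size; -100% = wells without RanGTP and RCC1; the record marks most hits as doubtful in a second field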
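Quantitative HTS using a FRET biosensor: 0.1 uM Rango, 0.25 uM importin beta, 0.6 uM Ran, 2 mM GTP, 0.2 uM RCC1 final, PBS with DTT, Tween-20 and BSA. Post-read taken 45 min after Ran addition.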
GLA inh pH 4.5 – inhibitors of human alpha-galactosidase A at pH 4.5 | purified enzyme, 4-MU-alpha-Gal fluorescence, pH 4.5 | 230,000 tested, under 10 active | P06280 | AID 1467 | activity change, negative = inhibition, % at 105 µM; inconclusive = small, poorly fitted or top-dose-only inhibition, or a rising curve; inactive = flat fitted curve, though single readings scatter; no compound was filed as active;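 further: 0% = full activity with enzyme and -100% = basal without enzyme; dose as in the result columns while the protocol names 77 µM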
An asterisk follows results filed as active; ? = inconclusive; nt = no result given; & = joins results of further samples.

smiles	miR-21 reporter	Rango-impB inh	Rango dissoc inh	GLA inh pH 4.5
COc1ccc(Br)cc1CN1CCCC(C(=O)N2CCCCCC2)C1 (configuration not stated)	12%	0.0%	7%	-3
Cc1nc2ccc(C(=O)OCc3ccccc3Br)cc2nc1C	-14%	1.3%	16%	8
NC(=O)C1=C[C@@H](c2ccccc2)C[C@@H](OCCCCO)O1	nt	0.7%	16%	nt
O=C(NCc1ccc(F)cc1)C1CCN(S(=O)(=O)c2cccnc2)CC1	2%	3.2%	24%	nt
COc1c(Br)cc2c(C)c(C(=O)O)oc2c1Br	0%	-0.8%	-7%	-4
O=C(N/N=C/c1ccc(OCc2ccccc2)cc1)c1cccs1	-41%	-0.3%	2%	-14
Fc1cccc(/C=N/Nc2ccc3ccccc3n2)c1	-10%	4.7%	-20%	0
N#CC1=C(N)Oc2n[nH]c(-c3cccs3)c2C1c1ccccc1C(=O)O (configuration not stated)	-3%	-1.1%	14%	-5
CC(C)Cn1c(-c2ccc(F)cc2)n[nH]c1=S	-1%	7.2%	14%	3
CCOC(=O)C1CCN(C(=O)C(CCSC)NC(=O)c2ccccc2OC)CC1 (configuration not stated)	nt	-0.4%	-2%	nt
O=C(/C=C/NCC(=O)c1ccccc1)c1ccc(Br)cc1	-24%	?	-11%	0
O=S(=O)(NCC1CCCO1)c1ccc(Oc2ccccc2)cc1 (configuration not stated)	12%	3.0%	-7%	-4
CN1CCN(C(=O)/C(=C/c2cn(C)c3ccccc23)NC(=O)c2ccccc2)CC1	1%	0.7%	-1%	nt
CCOC(=O)c1sc(NC(=O)C2CCC2)cc1C	-64%	1.5%	1%	-30
COc1ccc(-c2cc3ccc(OCC(C)=O)cc3oc2=O)cc1	-70%	-2.4%	-16%	nt
CCn1cc(C(=O)N2CCCC(CO)(Cc3ccccc3C)C2)cn1 (configuration not stated)	-5%	1.9%	-12%	nt
Cc1cc(=O)oc2cc(OCC(=O)N3CCN(c4ccc(F)cc4)CC3)c(Cl)cc12	1%	1.4%	-6%	nt
O=C(ON=C1CCN(S(=O)(=O)c2ccccc2)CC1)c1cccc(Cl)c1	0%	-4.1%	-13%	-4
CCOC(=O)c1sc(N)c(C#N)c1CSc1nnc(C2CC2)n1N	-7%	-1.6%	-21%	-7
O=S(=O)(c1ccc(Cl)nc1)N1CCN(Cc2ccc3c(c2)OCO3)CC1	-8%	-0.1%	1%	-1
O=[N+]([O-])c1ccccc1/C=N/N1CCN(Cc2ccccc2)CC1	-40%	2.5%	9%	nt
O=C(CCC1CCCC1)Nc1ccc(OCC(=O)N2CCOCC2)cc1	-25%	3.6%	-4%	0
Fc1ccc(-c2csc(-c3ccc(C4SCCS4)cc3)n2)cc1F	-22%	4.4%	1%	-5
CCOC(=O)Cn1c(-c2ccccn2)nc2ccccc21	0%	-4.6%	6%	-7
COc1ccc(C2CC(=O)c3c(O)cc(O)cc3O2)c(CC=C(C)C)c1OC (configuration not stated)	nt	8.3%	-6%	nt
OCc1ccccc1N=Cc1cccnc1	-9%	-2.8%	16%	nt
CC(C)C(=O)Nc1cc(S(=O)(=O)N2CCOCC2)ccc1N1CCCCC1	nt	-4.3%	2%	nt
O=C(c1cc(-c2ccccc2)on1)N1CCN(c2ccccc2)CC1	-6%	-2.5%	-3%	nt
O=C(Nc1ccccc1)NC1(C(=O)N2CCN(C(=O)c3ccco3)CC2)CCCCC1	-6%	0.0%	20%	4
COc1ccc(-c2csc(NC(=O)c3cc(C)on3)c2C#N)cc1OC	-15%	-2.2%	11%	-2
COc1ccc2cc(C(N)=O)c(=Nc3ccc(C)cc3)oc2c1	-5%	0.7%	-7%	-2
O=C1NC(=Nc2ccccc2)/C(=C/c2ccco2)S1	-2%	?	-12%	-16
CCNC(=S)N1CCN(CCN=CC2=C(O)CC(C)(C)CC2=O)CC1	4%	-3.6%	-8%	-10
CCOC(=O)C1CCCN(S(=O)(=O)c2cc(Br)cc3c2N(C(C)=O)CC3)C1 (configuration not stated)	3%&-1%	-4.2%	16%	nt
Cc1ccc(S(=O)(=O)C2(C(=O)Nc3nccs3)CC2)cc1	-1%	-0.6%	1%	3
O=C(O)CNS(=O)(=O)c1ccc2[nH]c(=O)c(=O)[nH]c2c1	0%	0.8%	10%	3
Cc1cccc(-c2c3c(=O)n(C)c(=O)n(C)c3cn2CC2CCCO2)c1 (configuration not stated)	-8%	2.6%	5%	3
Cc1cc(C(=O)Nc2ccc(Cl)cc2)on1	-14%	0.2%	0%	nt
Oc1ccc(N2CCN(c3nnnn3-c3ccccc3)CC2)cc1	-2%	6.6%	2%	-25
O=C1NN(c2ccccc2)C(=O)/C1=C\c1coc2ccc(O)cc2c1=O	-11%	-4.1%	-12%	-1
CNC(=O)C1CC(=O)N(c2ccc(OCC(=O)NCc3ccccc3)cc2)C1 (configuration not stated)	-9%	-2.6%	1%	nt
CCOc1cc(/C=N/NC(=O)c2ccccc2OCc2ccc(F)cc2)ccc1O	nt	-3.8%	4%	nt
N#C/C(=N\Nc1ccc([N+](=O)[O-])cc1)C(=N)N1CCOCC1	-50%	3.9%	-14%	-3
COc1cccc(-n2cnc3sc(-c4ccccc4)cc3c2=O)c1	nt	7.9%	0%	nt
O=C(OCC1CC(c2ccccn2)=NO1)c1ccc(Br)cc1 (configuration not stated)	-7%	0.0%	10%	-2

Some of the entries so far, with values under each structure.
Values run as follows: miR-21 reporter | Rango-impB inh | Rango dissoc inh | GLA inh pH 4.5
- Cc1ccc(S(=O)(=O)C2(C(=O)Nc3nccs3)CC2)cc1
 : -1% | -0.6% | 1% | 3
- N#C/C(=N\Nc1ccc([N+](=O)[O-])cc1)C(=N)N1CCOCC1
 : -50% | 3.9% | -14% | -3
- Cc1cccc(-c2c3c(=O)n(C)c(=O)n(C)c3cn2CC2CCCO2)c1 (configuration not stated)
 : -8% | 2.6% | 5% | 3
- CCOc1cc(/C=N/NC(=O)c2ccccc2OCc2ccc(F)cc2)ccc1O
 : nt | -3.8% | 4% | nt
- O=C1NN(c2ccccc2)C(=O)/C1=C\c1coc2ccc(O)cc2c1=O
 : -11% | -4.1% | -12% | -1
- O=C(O)CNS(=O)(=O)c1ccc2[nH]c(=O)c(=O)[nH]c2c1
 : 0% | 0.8% | 10% | 3

The list goes on:
smiles	miR-21 reporter	Rango-impB inh	Rango dissoc inh	GLA inh pH 4.5
O=C1CC(c2cc(Br)ccc2F)c2cc3c(cc2N1)CCC3 (configuration not stated)	?	1.0%	4%	-1
Cc1onc(-c2c(F)cccc2Cl)c1C(=O)Nc1sc2c(c1C#N)CCC(C(C)(C)C)C2 (configuration not stated)	-3%	-1.0%	-15%	12
CCOC(=O)C1(C)NC(c2ccc(N(C)C)cc2)C2C(=O)N(c3ccc(OC)cc3)C(=O)C21 (configuration not stated)	-1%	-1.2%	15%	8
Cc1c(C(=O)Nc2ccccc2)c2ccc(C(F)(F)F)cc2n1O	nt	1.6%	19%	nt
O=C(CNC(=O)c1ccccc1F)NCCCN1CCCC1=O	nt	0.8%	4%	nt
O=C(Nc1ccccn1)NC1CCCCC1	-20%	-1.2%	-10%	-31
CCOc1ccc(-c2noc(COC)n2)cc1OC	-34%	?	-15%	0
CC(c1ccccc1C(O)(c1ccccc1)c1ccccc1)N(C)C (configuration not stated)	-10%	-2.3%	17%	-8
CN(C)C1=NCC(CSC(=N)N)S1 (configuration not stated)	7%	0.3%	-6%	-18
c1ccc(-c2nc(CSc3n[nH]c(-c4cccs4)n3)cs2)cc1	-12%	-0.7%	-7%	0
O=C(COc1ccccc1Cl)NCCCNC(=O)c1cccnc1	?	4.5%	0%	nt
Cn1cnnc1SCC(=O)Nc1ccccc1C(=O)NC1CCCC1	-4%	0.3%	-2%	9
COc1ccc(NC(=O)c2ccc(CNc3c(NC4CCCCC4)c(=O)c3=O)cc2)cc1OC	-7%	-1.4%&1.8%	-22%&-2%	0
CN(C)S(=O)(=O)c1cccc(NC(=O)c2cc(-c3cccs3)nn2-c2ccccc2)c1	-4%	-1.0%	1%	1
N#Cc1ccc(N/N=C/c2ccccc2)c([N+](=O)[O-])c1	-1%	1.9%	7%	-2
CC(C)CC1=NC(C(F)(F)F)(C(F)(F)F)c2c(n(CC(C)C)c(=O)[nH]c2=O)N1	-3%	-0.2%	0%	3
O=C(Nc1nnc(C2=COCCO2)o1)c1cccc([N+](=O)[O-])c1	-3%	1.8%	8%	nt
COc1ccc2c(c1)-c1ccccc1S(=O)(=O)N(C)C2	nt	-6.0%	-7%	nt
Cc1c(C(=O)OCC(=O)NCCc2ccc(S(N)(=O)=O)cc2)oc2ccccc12	nt	-1.4%	9%	nt
CCn1c(SCC(=O)Nc2ccc(C(C)=O)cc2)nc2ccccc21	-50%	0.0%	1%	-8
Cc1ccc(S(=O)(=O)N(CC(=O)N2CCC(C(N)=O)CC2)Cc2ccc(F)cc2)cc1	-7%	-2.0%	-13%	4
CN(C)c1cc[n+](CC(=O)Nc2ccc(Oc3ccccc3)cc2)cc1	?	1.7%	?	-4
O=C(Nc1ncc2c(n1)-c1ccccc1CC2)c1cccs1	-15%	0.0%	15%	-21
O=C(CC(c1ccccc1)c1cc(Cl)ccc1O)N1CCOCC1 (configuration not stated)	-9%	0.3%	2%	0
CCCN1C(=O)C(O)(CC(=O)c2cccc(OC)c2)c2ccccc21 (configuration not stated)	-4%	0.3%	1%	-17
CCOC(=O)c1c(-c2ccccc2)oc2cc(Br)c(O)c(C=O)c12	5%	?	?	nt
COc1ccc(N2CCN(C(=O)CCn3nnc4ccccc43)CC2)cc1	-6%	-1.2%	1%	-13
COc1ccccc1C(=O)Nc1ccon1	-6%	-1.2%	6%	-15
O=C(COC(=O)c1ccccc1Nc1cccc(C(F)(F)F)c1)NCc1ccco1	6%	-5.8%	-8%	-1
O=C(O)c1cccc(-n2c(-c3cnccn3)n[nH]c2=S)c1	1%	-1.5%	3%	13
COc1ccc(NC(=O)CN(C)CC(=O)N2CC(=O)Nc3ccccc32)cc1	nt	9.5%	-8%	nt
O=C(c1ccccc1)c1ccc(-n2cnnc2)c([N+](=O)[O-])c1	2%	-4.6%	-19%	nt
O=C(CNS(=O)(=O)c1cccc2nsnc12)NCCc1ccccc1	0%	3.3%	?	nt
CC(=O)NC(CCS(C)(=O)=O)C(=O)Nc1ccccc1C (configuration not stated)	-3%	-5.0%	-8%	-9
O=C1OCC/C1=C\c1ccc2c(c1)OCO2	7%	0.7%	-5%	-7
O=C1c2ccccc2NC(c2ccccc2O)N1c1ccc(F)cc1 (configuration not stated)	-61%	12%	8%	nt
CCc1ccc(/C=N/n2c(C3CCCCC3)n[nH]c2=S)cc1	3%	-0.1%	3%	nt
Cc1ccc(-c2nc(-c3ccncc3)no2)cc1	-66%	2.2%	2%	nt
Cc1nc2c(C(=O)NCc3ccc4c(c3)OCO4)cnn2c(C)c1Cc1ccc(F)cc1Cl	-5%	4.7%	0%	-6
CN(CC(=O)Nc1ccc(Cl)cc1)C(=O)c1ccc(S(=O)(=O)Nc2ccccc2)cc1	nt	1.3%	8%	nt
COc1ccc(N(CCC#N)C(=O)/C(C#N)=C/c2cccs2)cc1	-7%	-3.3%	11%	-1

Source: PubChem (National Center for Advancing Translational Sciences (NCATS))

These rows are one share of the data; rates above refer to the full screens.
